Ba CapD inh: Bacillus anthracis CapD inhibitors, primary screen, biochemical, fluorescence intensity | purified CapD enzyme, fluorescence intensity read-out; stronger effect = lower value; some hits fall short of the stated cut | z-score (concentration not given with the values) | actives 0.23% (n = 140,000) | AID 492967, 2010;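 active = z-score under -4 in either of two replicates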;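 also: stock transfer was 100 nL into about 40 µL; score is relative to mean and spread of the plate; one replicate is shown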
AID504770: growth inhibition of E. coli YBA685, primary screen, V. cholerae RctB inhibitors; AID 504770, 2011; z-score (no concentration beside the values); actives 0.27% (n = 130,000); E. coli YBA685 rctB-dependent plasmid, OD600 growth, 3 h; stronger effect = lower value;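 active = z-score under -2 on both plates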;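 also: wells of about 30 µL received 100 nL stock; score is relative to mean and SD of the test wells; the first replicate is given; strong numbers were not always called active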
Active calls of the source: *; x = no result given. Outcome played no part in choosing rows, and some 0.37% of all compounds hit somewhere here.

SMILES	Ba CapD inh	AID504770
Cc1nc(-n2nnc3cc(C)c(C)cc32)c2c3c(sc2n1)CCCC3	-0.165	1.35
O=[N+]([O-])c1ccc(N2CCOCC2)cc1Sc1nc2ccccc2[nH]1	-0.245	x
COC(=O)c1ccc(N2CCN(c3ccc(Cl)cc3)CC2)c([N+](=O)[O-])c1	0.3	x
COC(=O)CN1C(=O)c2cccnc2Sc2ccccc21	0.125	0
CS(=O)(=O)N1Cc2ccccc2CC1C(=O)N1CCN(C(=O)c2cccs2)CC1 (stereo not given)	x	0.05
COCCOC(=O)C1=C(C)NC(=O)NC1c1cc(Br)c(O)c(OC)c1 (stereo not given)	-0.46	x
O=C1c2ccccc2C(=O)N1Cc1nc2ncccc2[nH]1	1.28	0.35
CC(OC(=O)c1ccc(S(=O)(=O)N2CCCC2)cc1)C(=O)N1CCc2ccccc21 (stereo not given)	x	1.4
COC(=O)N1c2ccccc2CCc2ccccc21	-0.97	x
C[C@]12CCC3c4ccc(O)cc4CCC3C1CCC2=O (stereo not given in full)	x	0.45
COC(=O)c1sccc1Oc1ccc(C(F)(F)F)cc1NC(=O)/C=C/C(=O)O	-0.02	-0.35
CCN(Cc1nc(-c2ccc(OC)c(OC)c2)no1)C(=O)Cc1cccc2ccccc12	x	-0.15
CCCCc1ccc(NS(=O)(=O)CC23CCC(CC2=O)C3(C)C)cc1 (stereo not given)	0.015	0
O=c1[nH]c2cc([N+](=O)[O-])ccc2nc1Cc1ccc(Cl)c([N+](=O)[O-])c1	-0.275	x
O=C(Cc1ccc(Cl)cc1)n1cc(Cl)cn1	x	1.95
c1ccc(CN2CCOCC2)cc1	x	1.8
O=C(Cn1ncc2c3ccccc3n(Cc3ccccc3)c2c1=O)N1CCOCC1	-0.055	0.05
CC(C)N(C(=O)CSc1nnc(-c2cccnc2)n1Cc1ccccc1)C(C)C	x	-0.7
O=C(O)CC1(CC(=O)N2CCN(c3ccc(C(F)(F)F)cc3)CC2)CCCC1	-0.825	x
Cc1cc2nc[nH]c2cc1C	x	-0.6
NS(=O)(=O)c1ccc(Nc2c3c(nc4ccc(Cl)cc24)CCC3)cc1	43.1	-0.2
CC(O)CNC(=O)c1sc2ccccc2c1Cl (stereo not given)	0.345	-0.95
COc1ccccc1C(=O)N1CCN(CC(=O)NC(C)C)CC1	0.19	x
CN(C)C(=O)Oc1ccc2cc(-c3ccccc3)c(=O)oc2c1	x	-0.75
COc1cc(/C=N/NC(=O)COc2ncn(-c3ccccc3)n2)cc(OC)c1O	2.46	x
O=C(O)c1ccc2c(c1)CCN2	x	0.45
O=C(O)Cc1ccc2ocnc2c1	0.04	0.75
CCC1SC2=NCN(c3ccccc3)CN2C1=O (stereo not given)	0.225	-0.5
CCCOC1OC(COC(C)=O)C(OC(C)=O)C(OC(C)=O)C1NC(C)=O (stereo not given)	-0.14	x
CC1=C(C(=O)OCc2ccccc2)C(c2ccccc2)NC(=O)N1C (stereo not given)	0.15	-0.8
CCN(CC)CCN1C(=O)C(=O)/C(=C(/O)c2ccc3c(c2)OCCO3)C1c1cccc(Cl)c1 (stereo not given)	-0.36	-1.25
COc1ccc(-c2n[nH]c(=S)n2-c2ccccc2Cl)cc1	-0.34	x
CCOC(=O)c1ncn2c(=O)c3c(C(=O)OCC)ncn3c(=O)c12	-0.11	x
NC(N)=NC(N)=Nc1ccc(Cl)cc1Cl	0.095	-0.15
O=C1C(Nc2ccccc2)=CC(c2ccccc2[N+](=O)[O-])N1c1ccccc1 (stereo not given)	0.28	x
CCN(CC)c1nc(C)nc2sc(C(=O)N3CCN(c4ccc(F)cc4)CC3)c(C)c12	0.16	x
CC1(C)C(Br)=C(Br)C(=O)C1(Br)Br	-0.42	x
COc1cc(Br)c(C2C(C#N)=C(C)NC3=C2C(=O)CC(c2ccc(Cl)cc2)C3)cc1OC (stereo not given)	0.18	x
O=C(c1ccccc1)N1CCN(S(=O)(=O)N2CCCCCC2)CC1	x	-0.85
N#CC1=C(N)Oc2n[nH]c(-c3cccc([N+](=O)[O-])c3)c2C1c1ccccc1C(F)(F)F (stereo not given)	-0.305	x
COc1cc(OC)c(C2=NOC(C(=O)NCCCN3CCOCC3)C2)cc1Cl (stereo not given)	3.22	-0.9
COc1cccc(C(=O)Nc2ccc(N3CCCC3)cc2)c1	-0.56	-0.9
CC(C)OP(=O)(OC(C)C)C(N)CC12CC3CC(CC(C3)C1)C2 (stereo not given)	0.3	x
Cc1ccc(C)n1CCn1c(C)ccc1C	0.25	x
CSc1ncc(C(=O)OCc2ccc(C#N)cc2)n1-c1ccccc1	x	0.05

Seven of the compounds above, as comma-separated lines:
SMILES,Ba CapD inh,AID504770
CCN(CC)c1nc(C)nc2sc(C(=O)N3CCN(c4ccc(F)cc4)CC3)c(C)c12,0.16,x
Cc1cc2nc[nH]c2cc1C,x,-0.6
CCC1SC2=NCN(c3ccccc3)CN2C1=O (stereo not given),0.225,-0.5
O=C(Cc1ccc(Cl)cc1)n1cc(Cl)cn1,x,1.95
CCN(CC)CCN1C(=O)C(=O)/C(=C(/O)c2ccc3c(c2)OCCO3)C1c1cccc(Cl)c1 (stereo not given),-0.36,-1.25
CC(OC(=O)c1ccc(S(=O)(=O)N2CCCC2)cc1)C(=O)N1CCc2ccccc21 (stereo not given),x,1.4
COc1cc(Br)c(C2C(C#N)=C(C)NC3=C2C(=O)CC(c2ccc(Cl)cc2)C3)cc1OC (stereo not given),0.18,x

Remaining list, next part
SMILES	Ba CapD inh	AID504770
O=C(O)c1ccnc(Cl)c1	7.88	-0.2
CN(C)/C=C/C=C1C(=O)CC(C)(C)CC1=O	-1.94	-0.6
CCOC(=O)c1cnc2cc(C(F)(F)F)ccc2c1Nc1c(C)n(C)n(-c2ccccc2)c1=O	x	0.3
CCn1cc(C(=O)N(C)Cc2ccccc2)c2cc(OC)c(OC)cc2c1=O	0.32	-0.25
CCCCCCOc1ccc(-c2ncc(CCCCC)cn2)cc1	-0.715	x
CCn1c2ccccc2c2cc(CN3CCN(C(=O)OCc4ccc(F)cc4F)CC3)ccc21	7.05	x
CSc1nn(CSc2c(Cl)cccc2Cl)c(=S)s1	-0.54	0.65
CCN(CC)CCCNC1=NCC(C)S1 (stereo not given)	0.425	-0.9
CC(C)C(=O)OCc1cc(=O)n2ccsc2n1	13.6	-0.3
CCn1cc(C(=O)NCc2ccc(C)o2)c2cc(OC)c(OC)cc2c1=O	2.77	2.2
O=C(O)CNC(=O)COc1ccc(-c2ccccc2)cc1	-0.05	2.2
Cc1ccc(C(O)(CCN2CCCCC2)c2ccccc2)cc1 (stereo not given)	0.09	-0.8
Cc1ccc(S(=O)(=O)Nc2sc3c(c2C(N)=O)CCCC3)cc1	1.75	x
CCC(=O)Nc1ccccc1Cl	0.11	-0.75
COC(=S)Nc1ccc(C(C)C)cc1	0.745	0.1
O=C(NCc1ccc(F)cc1)NC1CC(=O)N(c2ccccc2)C1 (stereo not given)	x	-0.3
O=C1CCCC2=C1C(c1ccc(Cl)cc1)n1c(s/c(=C\c3cccnc3)c1=O)=N2 (stereo not given)	x	-0.45
CC(C)(C)C(=O)Nc1c[nH]c(=O)[nH]c1=O	-0.02	1.6
CN(C(=O)CSc1nnc(-c2ccccc2)o1)c1c(N)n(Cc2ccccc2)c(=O)[nH]c1=O	x	-0.95
c1ccc(-c2nnc(-c3ccccc3)o2)cc1	-0.155	-0.6
O=c1[nH]c2ccccc2c2nncn12	7.52	-1.15
CSC1=NCCN1C(=O)COc1ccccc1	-0.56	-1.25
NS(=O)(=O)c1ccc(NC(=O)CSC2=NC(=O)C(Cc3ccccc3)C(=O)N2)cc1 (stereo not given)	0.16	-0.05
O=C1c2cccc3c(N4CCNCC4)ccc(c23)C(=O)N1c1ccc(Cl)cc1	x	1.3
Cc1cc(NC(=O)c2c(F)cccc2Cl)no1	-0.345	-0.35
COc1ccc(N=CN(C)C)cc1OC	x	0
CCC(C)c1ccccc1N=Cc1ccsc1 (stereo not given)	-0.095	-1.45
O=C(Nc1cccc(O)c1)c1cc(C2CC2)on1	-0.535	1.2
CC(=O)NCc1cccs1	x	0.25
Cc1ccc(C(=O)NCCc2cccs2)cc1	0.47	-0.35
CCS(=O)(=O)NCCc1cc2ccc(OC)cc2[nH]c1=O	30.6	-0.7
COc1ccc(OCC(O)Cn2c(N3CCOCC3)nc3c2c(=O)n(C)c(=O)n3C)cc1 (stereo not given)	0.125	x
O=C(CCS(=O)(=O)Cc1ccccc1)n1nnc2ccccc21	0.105	-0.05
COc1ccc(C2CC(=O)C=C(NCC3CCCO3)C2)cc1 (stereo not given)	0.045	-2.15
COc1cc(NC(=O)c2ccc(OC(F)(F)F)cc2)c(C(=O)O)cc1OC	-0.81	x
N#CCSC1=N/C(=C/c2ccco2)C(=O)N1c1ccc(OC(F)F)cc1	x	-0.3
C1=CC2CC1CC2CNCc1ccco1 (stereo not given)	0	-0.85
N#Cc1c(-c2ccccc2)c(C#N)c2sc3ccccc3n2c1=O	-0.24	1.3
Cc1c(C(=O)N2CCCC2)oc2c1-c1nn(CC(=O)NC(C)c3ccc4c(c3)OCCO4)cc1CC2 (stereo not given)	8.52	-1
COc1ccc(CCNc2nccc(=O)[nH]2)cc1OC	1.87	-1
CCSc1nnc(NC(=O)c2ccc3ccccc3c2)s1	0.995	-0.65
COc1ccc(-c2csc(=Nc3ccccc3)n2CCc2ccccc2)cc1Br	-0.29	x
COc1ccc(/C=c2\[nH]c(=O)/c(=C\c3ccc(OC)cc3)[nH]c2=O)cc1	-0.31	0.35
CCOc1ccc(NC(=O)C2CCN(C(=O)Cc3ccccc3)CC2)cc1	x	-0.35
O=C(OCc1nc2ccccc2s1)c1cccc(N2C(=O)CCC2=O)c1	0.095	-0.5
CCSc1nc2ccccc2c(=O)n1-c1c(C)n(C)n(-c2ccccc2)c1=O	x	0
CC(Sc1ncnc2nc[nH]c12)c1ccccc1 (stereo not given)	-0.6	-0.45
O=C1C=CC(=O)N1c1ccc(C(F)(F)F)cc1	-1.17	-1
O=C(O)CCCN1C(=O)C(=O)/C(=C(/O)c2ccccc2)C1c1cccc(F)c1 (stereo not given)	0.1	x
Clc1cccc(Nc2nc(NCc3ccco3)c3ccccc3n2)c1	45.8	x
COc1ccc(NC(=O)CCC(=O)Oc2ccc(C)cc2)cc1	-0.61	1.65
CCOC(=O)c1sc2nc(CC(=O)OC)nc(NCCc3ccc(OC)c(OC)c3)c2c1C	1.21	x
Cc1cc(C)c2oc(-c3ccc(NC(=O)c4cc([N+](=O)[O-])ccc4Cl)cc3)nc2c1	24.8	x
O=c1cc(CSc2nc3ccccc3c(=O)[nH]2)c2ccc(O)cc2o1	x	-0.15
CC(C)c1ccc(NC(=O)NN2CCOCC2)cc1	0.625	-0.5
Cn1cccc1C(=O)c1ccc(Cl)cc1	-1.09	-0.05
O=C(Nc1ccccc1)C1CCCN1C(=O)NCc1ccccc1 (stereo not given)	x	-1.05
CCCCc1ccc(NS(=O)(=O)c2ccc(C(C)(C)CC)cc2)cc1	-0.54	x
O=C(OCc1cc(Cl)cc2c1OCOC2)c1ccc(CN2CCCC2=O)cc1	x	-1.05
O=S(=O)(NCc1ccco1)c1cccc2nonc12	-0.89	x

Part of the list above, with values under each structure:
Each structure is followed by: Ba CapD inh, AID504770
> COc1ccc(-c2csc(=Nc3ccccc3)n2CCc2ccccc2)cc1Br
    -0.29, x
> COc1ccc(/C=c2\[nH]c(=O)/c(=C\c3ccc(OC)cc3)[nH]c2=O)cc1
    -0.31, 0.35
> O=c1cc(CSc2nc3ccccc3c(=O)[nH]2)c2ccc(O)cc2o1
    x, -0.15

Back to the main list; the three compounds before the break are reprinted first.
SMILES	Ba CapD inh	AID504770
CCCCc1ccc(NS(=O)(=O)c2ccc(C(C)(C)CC)cc2)cc1	-0.54	x
O=C(OCc1cc(Cl)cc2c1OCOC2)c1ccc(CN2CCCC2=O)cc1	x	-1.05
O=S(=O)(NCc1ccco1)c1cccc2nonc12	-0.89	x
C[C@]12C=CC(=O)C=C1CCC1C3C[C@@H](O)[C@](O)(C(=O)CO)[C@@]3(C)C[C@H](O)[C@@]12F (stereo not given in full)	0.68	0.2
CNC(=O)C1=C(C)Nc2nc3ccccc3n2C1c1cccs1 (stereo not given)	0.195	2.3
CN(C(=O)c1noc2c1CCc1ccccc1-2)c1ccccc1	-1.01	-0.1
Cc1cccc2cc(CN(C(=O)c3ccncc3)C3CCCC3)c3nnnn3c12	x	-0.3
CC1Sc2ccc(S(=O)(=O)CCC(=O)N3CCCCC3)cc2NC1=O (stereo not given)	-0.645	1.1
CCSc1nnc(NC(=O)C2CCCCC2C(=O)OCC(F)(F)C(F)F)s1 (stereo not given)	0.275	0.15
O=C(CSc1cccc2cccnc12)NC(c1ccccc1)c1ccccc1	10.4	-0.35
COc1ccc(C(=O)COC(=O)CSc2nc3ccccc3s2)cc1	0.97	x
Cc1cccn2c(=O)c3cc(C(=O)NC4CCCCCC4)sc3nc12	1	-0.55
CN(CC(=O)N1CCc2ccccc21)S(=O)(=O)c1ccc2c(c1)c(=O)n(C)c(=O)n2C	0.13	-0.1
CCOC(=O)c1c(CC(C)C)csc1NC(=O)C#Cc1ccccc1	2.69	0.5
Cc1ccc(Cn2nc(C)ccc2=O)cc1	-0.405	-0.85
CCC(C)N(C)C1CCN(C(=S)Nc2cccc(Cl)c2)CC1 (stereo not given)	-0.325	0.45
COc1ccc(-n2nnnc2SCC(=O)N2CC(=O)Nc3ccccc32)cc1	x	-0.3
CC1Cc2ccccc2N1C(=O)C1CCN(S(=O)(=O)Cc2ccccc2)CC1 (stereo not given)	x	-0.35
CC(=O)OC1OCCOC1NC(=S)Nc1ccc(C)cc1 (stereo not given)	x	0.6

Record cards, as listed above. Screens in order: Ba CapD inh	AID504770
`O=C(CSc1cccc2cccnc12)NC(c1ccccc1)c1ccccc1` is entered as 10.4	-0.35
`CCOC(=O)c1c(CC(C)C)csc1NC(=O)C#Cc1ccccc1` is entered as 2.69	0.5
`COc1ccc(C(=O)COC(=O)CSc2nc3ccccc3s2)cc1` is entered as 0.97	x

Screens: PubChem BioAssay, ICCB-Longwood Screening Facility, Harvard Medical School
